Source: PubChem BioAssay (National Center for Advancing Translational Sciences (NCATS))
VDR inhibitor = blocks the human vitamin D receptor; 400,000 compounds, 0.93% hits; AID 504847; VDR-SRC2-3 peptide fluorescence polarization, 2 h; Potency, µM, without a hit: max response, negative = inhibition, usual class: inhibitors; P11473; active = well fitted inhibition curve with a large enough effect; inconclusive = small, poorly fitted or top-dose-only effect, or another doubt; inactive = no such curve, though single readings can be large or run the other way; note: series mostly up to about 120 µM
Target sequence (P11473 whole entry, looked up): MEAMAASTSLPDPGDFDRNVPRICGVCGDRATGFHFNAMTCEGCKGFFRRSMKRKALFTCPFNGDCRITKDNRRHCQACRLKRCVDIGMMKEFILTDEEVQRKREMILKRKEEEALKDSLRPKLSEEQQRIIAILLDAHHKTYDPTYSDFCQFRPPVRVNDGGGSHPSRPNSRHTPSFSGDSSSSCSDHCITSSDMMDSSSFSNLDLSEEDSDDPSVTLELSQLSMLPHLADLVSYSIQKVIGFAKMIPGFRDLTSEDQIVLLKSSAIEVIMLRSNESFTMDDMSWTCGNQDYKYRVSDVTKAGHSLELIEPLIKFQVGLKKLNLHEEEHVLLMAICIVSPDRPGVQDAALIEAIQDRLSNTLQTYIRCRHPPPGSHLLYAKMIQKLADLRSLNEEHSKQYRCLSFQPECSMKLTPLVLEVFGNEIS
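After 23 nl compound addition and a short centrifugation, plates sat for 2 hours at ambient temperature; polarization of fluorescence then indicated loss of VDR binding to peptide SRC2-3.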
* marks the source's active call; other numbers are inactive results; u = inconclusive; & = joins results of further samples. % is set by controls: 0 for no effect and ±100 for the full control effect; potency is the fitted concentration of half-maximal effect.

mol	VDR inhibitor
Cc1cc(NC(=O)CSc2ncc(C(=O)Nc3ccc(C)c(C)c3)c(=O)n2C)no1	16%
CC(=O)N1CCC[C@@]2(CCN(c3ccncc3)C2)C1	-11%
CC(=O)C(=Nc1ccc(Cl)cc1Cl)NNc1cccc(Cl)c1	-10%
Cc1ccc(Cl)cc1NC(=O)COCc1cc(-c2ccco2)on1	-2%
CCn1c(SCC(=O)Nc2nccs2)nnc1-c1cccnc1	21%
Cc1cc(NC(=O)CSc2ccc3nnc(-c4ccccn4)n3n2)no1	-26%
CCC(C)c1ccc(O)c(NC(=S)NC(=O)c2cccnc2)c1 (centres undefined)	0%
O=C(COC(=O)c1ccc([N+](=O)[O-])o1)Nc1cccc(S(=O)(=O)N2CCCCC2)c1	-13%
COc1cccc(CNC(=O)C2CCCN(S(=O)(=O)N3CC(C)CC(C)C3)C2)c1 (centres undefined)	-16%
CC(=O)NCC1CCCN(C(=O)c2ccc(OC3CCN(Cc4ccccn4)CC3)cc2)C1 (centres undefined)	8%
CC(=O)Nc1ccc(NC(=O)c2ccc3c(c2)C(=O)N(c2ccccc2C)C3=O)cc1	2%
COC(=O)[C@@H](NC(=O)Nc1cccc(Br)c1)C(C)C	5%
COc1ccccc1C(=O)Nc1nnc(S(=O)(=O)N(C)c2ccc(Cl)cc2)s1	13%
CC(=O)Nc1ccc(NC(=O)Cn2nc([N+](=O)[O-])c(Br)c2C)cc1	-6%
COc1ccc(C=O)cc1CSc1ccccn1	4%

Further records:
mol	VDR inhibitor
O=C(Nc1ccc(Cl)cc1)C1(S(=O)(=O)c2ccccc2)CC1	-4%
CC(=O)c1c(C(C)=O)c(C)n(C2CCCCC2)c1C	9%
O=C(O)c1cccc(S(=O)(=O)NCCc2ccccc2)c1	-14%
C=CCNc1nc(C)nc(OC)n1	13%
Cc1cc(C)n(/N=C/c2cccs2)c(=O)c1C#N	-6%
CC1C/C(=N\NC(=O)CCc2ccc(S(=O)(=O)N3CCOCC3)cc2)CC(C)(C)C1 (centres undefined)	11%
CCN(CC(=O)Nc1c(F)cccc1F)C(=O)/C=C/c1cn(Cc2ccccc2)nc1-c1cccnc1	-5%
COc1ccccc1NC(=O)Cn1c(=O)n2nc(C)nc2c2ccccc21	-34%
Cc1csc(=Nc2ccccc2)n1CCO	-7%
Cc1nc(SCn2nnc3ccccc3c2=O)nc(C)c1C	-14%
O=C(N/N=C/c1cccc(Oc2ccccc2)c1)c1ccccc1Br	6%
S=c1[nH]nc(COc2ccccc2)n1/N=C/c1ccccn1	-9%
CC(C)Cn1cnc2c(c1=N)C(c1ccccc1)C1=C(CC(C)(C)CC1=O)O2 (centres undefined)	-1%
CC1=C(c2ccc(C)c(C)c2)S(=O)(=O)N=C1N1CCC(C(=O)Nc2ccc(Cl)cc2)CC1	10%
O=C(NCc1ccco1)Nc1ccc([N+](=O)[O-])cc1	1%

Next section
mol	VDR inhibitor
O=C1C(=O)N(c2ccccn2)C(c2ccc(F)cc2)/C1=C(/O)c1ccc(Br)cc1 (centres undefined)	-13%
CC(=O)N1CCC2(CC1)C/C(=N\NC(=S)Nc1ccccc1C)c1cc(O)ccc1O2	-26%
O=C1c2ccccc2S(=O)(=O)N1CC(O)COc1ccc(Br)cc1 (centres undefined)	-3%
COc1ccc(CCNC(=O)CSc2nc3[nH]ncc3c(=O)n2-c2ccccc2OC)cc1OC	-31%
O=C(CSc1nnc(C2CC2)n1Cc1ccccc1)Nc1cccnc1Cl	-3%
COC(=O)c1cc(NC(=O)c2c(-c3c(Cl)cccc3Cl)noc2C)ccc1N1CCOCC1	6%
COc1ccc(/C=C2\SC(=O)N(CCNC(=O)C3CC(=O)N(c4ccccc4)C3)C2=O)cc1 (centres undefined)	-8%
CC(=O)Nc1ccc(NC(=O)c2cc(CN3CCCC3)on2)cc1	11%
CCOC(=O)N1CCN(S(=O)(=O)c2ccc3c(c2)SCC(=O)N3)CC1	-5%
Cc1cc(OCC(=O)N2CCC(O)CC2)c2c(C)cc(=O)oc2c1	12%
O=C(OCCN1C(=O)c2ccccc2C1=O)[C@@H]1CC(O)CN1S(=O)(=O)c1ccccc1[N+](=O)[O-] (some centres undefined)	0%
Cc1ccc(C(=O)COc2cccc(NC(=O)c3ccco3)c2)cc1	-2%
CCOC(=O)c1cnc2c(c(C)nn2C)c1Oc1ccc(Cl)cc1	1%
O=c1c(O)c(-c2ccccc2)oc2cc(O)ccc12	0%
Cc1ccc(Nc2nnc(SCC(=O)Nc3ncc(S(=O)(=O)c4ccc([N+](=O)[O-])cc4)s3)s2)cc1	-6%

(continued)
mol	VDR inhibitor
COc1ccc(N2CCN(S(=O)(=O)CCNC(=O)COc3ccccc3)CC2)cc1	-23%
O=C1COc2ccc(S(=O)(=O)CCC(=O)N3CCN(c4cccc(C(F)(F)F)c4)CC3)cc2N1	8%
COc1ccc(-c2ncccc2OC(=O)C23CC4CC(CC(C4)C2)C3)cc1OC	4%
COC(=O)c1c(NC(=O)c2cccc([N+](=O)[O-])c2)sc(C(N)=O)c1C	-13%
O=C(COc1ncnc2ccccc12)Nc1cc([N+](=O)[O-])ccc1F	-9%
N/C(=N\OC(=O)c1ccc(F)cc1)c1cccc([N+](=O)[O-])c1	0%
Cc1cc(C)cc(N(C(=O)c2ccc(Br)o2)C2C=CS(=O)(=O)C2)c1 (centres undefined)	4%
O=C(CN1C(=O)NC2(CCCC2)C1=O)Nc1cccc(-c2nnc3n2CCCCC3)c1	-7%
Cc1ccc2c(c1)N(CCC(=O)NCc1ccccc1Cl)C(=O)CO2	-8%
Cc1cc(Br)ccc1NC(=S)NC1CCCC1	2%
O=C(CSc1nccn1Cc1ccccc1)NCc1ccccc1Cl	6%
Cc1cc(C)c(S(=O)(=O)c2c(C)cccc2C)c(OCC(C)C)n1	5%
Cc1ccc(OCCN2C(=O)c3ccccc3C2=O)c(C)c1	5%
O=C(c1ccc(S(=O)(=O)Nc2ccccc2)cc1)N1CCCC1	-2%
CCn1c(=O)cc(OCC(=O)N(C)c2ccc(OC)cc2)c2ccccc21	u

Further entries:
mol	VDR inhibitor
CC1(C)c2[nH]c3ccccc3c2C[C@@H]2C(=O)N(Cc3ccccc3F)C(=O)N21	-27%
O=C(Nc1ccc(Oc2cccnc2)cc1)C1CCN(Cc2ccccc2)CC1	7%
CCOC(=O)Cc1csc(SCC(=O)NC2CCCC(C)C2C)n1 (centres undefined)	-14%
COC(=O)c1ccc(Cn2nc(-c3ccc(C)c(C)c3)ccc2=O)cc1	-4%&12%
COc1ccc(CNC(=O)C(C)N2CCN(S(=O)(=O)c3ccccc3F)CC2)cc1 (centres undefined)	-4%
O=C(COC(=O)CSc1ccc([N+](=O)[O-])cc1)NCCc1ccccc1	-19%
CCCC1(C(=O)OCC)NC(c2ccc(O)cc2)C2C(=O)N(c3ccc4c(c3)OCCO4)C(=O)C21 (centres undefined)	-3%
CCCOc1ccc([N+](=O)[O-])c(N)c1	-14%
COCCNC(=O)Cn1nc(-c2ccc(C)cc2)c2ccccc2c1=O	0%&2%
Cc1ccc(C(=O)NNC(=O)c2ccncc2)cc1S(=O)(=O)N1CCOCC1	5%
O=C(COc1ncnc2ccccc12)N1CCN(C(=O)c2ccco2)CC1	4%
O=C1OCCN1N=Cc1ccco1	7%
CCOc1ccc(Nc2nc(N)nc(CSC(=S)N3CCOCC3)n2)cc1	-14%
CCN(CC)S(=O)(=O)c1cc(C(=O)Oc2cccc(-c3cnc4ccccc4n3)c2)ccc1Br	14%
Cc1nc(-c2ccccc2)sc1CCNC(=O)C(=O)Nc1ccc2c(c1)OCO2	9%

In the list so far, these have an aryl thioether with sulfur outside any ring.
mol	VDR inhibitor
Cc1cc(NC(=O)CSc2ncc(C(=O)Nc3ccc(C)c(C)c3)c(=O)n2C)no1	16%
CCn1c(SCC(=O)Nc2nccs2)nnc1-c1cccnc1	21%
Cc1cc(NC(=O)CSc2ccc3nnc(-c4ccccn4)n3n2)no1	-26%
COc1ccc(C=O)cc1CSc1ccccn1	4%
Cc1nc(SCn2nnc3ccccc3c2=O)nc(C)c1C	-14%
COc1ccc(CCNC(=O)CSc2nc3[nH]ncc3c(=O)n2-c2ccccc2OC)cc1OC	-31%
O=C(CSc1nnc(C2CC2)n1Cc1ccccc1)Nc1cccnc1Cl	-3%
Cc1ccc(Nc2nnc(SCC(=O)Nc3ncc(S(=O)(=O)c4ccc([N+](=O)[O-])cc4)s3)s2)cc1	-6%
O=C(CSc1nccn1Cc1ccccc1)NCc1ccccc1Cl	6%
CCOC(=O)Cc1csc(SCC(=O)NC2CCCC(C)C2C)n1 (centres undefined)	-14%
O=C(COC(=O)CSc1ccc([N+](=O)[O-])cc1)NCCc1ccccc1	-19%

(cont.)
mol	VDR inhibitor
CCOC(=O)c1ccc(NC(=O)C2CC(=O)N=C(N)S2)cc1 (centres undefined)	8%
CCCCCOc1ccc(NS(C)(=O)=O)cc1	0%
Cc1ccc(NC(=O)CSc2ncnc3ccccc23)cc1S(=O)(=O)N1CCCCCC1	-16%
CCN(CC)c1ccc([N+](=O)[O-])cc1C(=O)O	0%
COc1cc(Cl)c(C)cc1NC(=O)CC(c1ccc(F)cc1)N1Cc2ccccc2C1=O (centres undefined)	20%
COc1cc(C#N)c(NC(=O)CN2CCC(C(N)=O)CC2)cc1OC	22%
CCc1cccc2sc(N3CCN(C(=O)C4CC4)CC3)nc12	17%
Cc1cc(C)c(S(=O)(=O)Nc2ncccc2C)c(C)c1	-6%
O=C(O)c1c(NC(=O)N2CCOCC2)sc2c1CCCC2	-1%
CN(C)S(=O)(=O)c1ccc(C(=O)NCc2nnc(SCC(=O)N3CCCCCC3)o2)cc1	1%
O=C(O)CNC(=O)/C(=C/c1ccco1)NC(=O)/C=C/c1ccccc1	-4%
CCN(CC)C(=O)C1=C(C)Nc2nc3ccccc3n2C1c1ccc(Cl)cc1 (centres undefined)	-15%
CC(=O)c1cccc(NC(=O)Cn2cnc(S(=O)(=O)N3CCC(C)CC3)c2)c1	-3%
O=C(NCc1cccnc1)c1ccc(NC(=O)c2ccco2)cc1	1%
O=C(Nc1ccc2oc(-c3ccccc3)nc2c1)c1cccnc1	21%

(further entries)
mol	VDR inhibitor
Cc1ccc(O)c(C(=O)c2cc(C#N)c3nc4ccccc4n3c2)c1	24%
CCOc1ccc(CCNC(=O)C(CC)n2nc(C)c3c(C)n(-c4ccccc4)nc3c2=O)cc1 (centres undefined)	7%
CCCC(=O)C1=C(O)C(C(=O)OC)C(C)(C)CC1=NC (centres undefined)	22%
O=C1CCCC/C1=C\Nc1ccc(S(=O)(=O)Nc2cnc3ccccc3n2)cc1	-15%
COc1ccc(/C=N/OCC(=O)NCc2cccs2)c(OC)c1	-6%
COc1ccccc1NC(=O)c1oc2ccccc2c1NC(=O)c1ccc(S(=O)(=O)N(C)C)cc1	-10%
CC(=O)c1cccc(NC(=O)c2cc(S(=O)(=O)N3CCOCC3)cs2)c1	-24%
CC(C)Cc1nnc(NC(=O)CCC(=O)N2CCC(C)CC2)s1	1%
CCC1=Nc2cc(C(=O)NCc3ccccc3Cl)ccc2Sc2ccc(C)cc21	4%
O=C(O)C1CCCCC1C(=O)Nc1nccs1 (centres undefined)	8%
S=C(Nc1ccccc1)N(Cc1ccccc1)Cc1ccncc1	9%
CNc1nc(N)c([N+](=O)[O-])c(NCc2ccccc2)n1	-21%
COCC(C)N=C1SCCN1Cc1ccccc1 (centres undefined)	-10%
O=C1N(c2ccccc2C(F)(F)F)O[C@@]1(c1ccccc1)C1CCCC1	-17%
CCOc1ccccc1-n1c(SCC(N)=O)nc2ccccc2c1=O	-8%

Other results follow:
mol	VDR inhibitor
Cc1ccc2c(C)c(C(=O)N(Cc3cccs3)C3CCS(=O)(=O)C3)oc2c1 (centres undefined)	2%
CSc1nsc(SCc2cnc(C)nc2N)n1	-11%
O=C(NCCCN1CCOCC1)c1cc(-c2ccc(Br)cc2)on1	-1%
O=C(Nc1ccc(Cl)cc1)C1CCC(CNS(=O)(=O)c2ccc(Br)s2)CC1 (centres undefined)	-12%
COC(=O)Cc1ccc2oc(-c3cccnc3)nc2c1	-4%
Cn1c(SCC(=O)N2CCN(c3ccccc3)CC2)nnc1-c1c[nH]c2ccccc12	13%
Nc1cnn(C2CCCO2)c(=O)n1 (centres undefined)	-7%
CCOc1cc(NC(=S)NCCCN(C)C)c(OCC)cc1NC(=O)C1CC1	-5%
Cc1cccc(C(=O)OCC(=O)Nc2ccc(N3CCCCC3)cc2)c1O	-11%
CCC(C)Sc1ccc(-c2nc3ccc(C)cn3c2NC2CCCCC2)cc1 (centres undefined)	-29%
COCCn1c(C)cc(C(=O)COC(=O)c2ccc3c(c2)NC(=O)CS3)c1C	-15%
O=c1ccc(=O)n2n1CC(O)C2	-12%
Cc1csc2nc(O)c(C(=O)NC3CCCCCC3)c(=O)n12	2%
CCOC(=O)c1ccc(N2C(=O)CC(NC3CCN(C(=O)c4cccc(Cl)c4)CC3)C2=O)cc1 (centres undefined)	10%
COc1cc(OC)c(C(=O)NCC2CCCO2)cc1OC (centres undefined)	-10%

The listing continues:
mol	VDR inhibitor
CCCn1c(-c2ccc(F)cc2)n[nH]c1=S	9%
Oc1[nH]c2ccccc2c1N=Nc1nc2ccccc2s1	-6%
Cc1ccc(N(Cc2ccccc2)C(=O)c2cc(S(=O)(=O)N3CCOCC3)ccc2C)cc1	-18%
CCOC(=O)c1sc(/N=C/N(C)C)c(C(=O)OCC)c1C	9%
NC(N)=NN=C1c2ccccc2-c2ccccc21	-7%

Some of the compounds tested; count on the stated rates, not on these rows.
